PrP UTR inh – inhibition of PrP 5' UTR reporter expression; AID 488862, 2010; cell-based PrP 5' UTR mRNA reporter, plate reader; 340,000 tested, 0.35% active; inhibition, % (test concentration not listed);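 active = every replicate at 50% or more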;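 note: 0 = median of the neutral control wells; tested in H4 reporter cells; numbers are from one replicate; inactives centre near -14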
RN4220 kill – growth inhibition of S. aureus RN4220, primary screen, OD600. 16 h. inhibition, % (test concentration not listed). 330,000 tested, 0.33% active. AID 1259311, 2017;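 active = z-score of -3 or lower and OD600 up to 0.18 on both plates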;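 note: plate controls were untreated cells for no effect and reference antibiotic for full effect; stock transfer was 100 nL into about 80 µL; one replicate is shown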
Bead autofluor – compound fluorescence in toxin protease inhibitor counterscreen. compound autofluorescence counterscreen, microsphere flow cytometry; stronger effect = higher value. fluorescence intensity (no concentration beside the values). 360,000 tested, 3.1% active. AID 624483;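 active = at least 3 SD above the mean of all compounds, about 16000 in these data; inconclusive = too few beads counted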;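 note: 100 nL of 1 mM stock went into each well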
BJeLR viability – MLPCN primary cell-based screen for lethality selective to Ras in HRASV12 cells | 300,000 tested, 0.17% active | AID 1554, 2009 | BJeLR (HRASV12) viability, CellTiter-Glo ATP luminescence, 48 h; reference of the scale not given here | inhibition, % (test concentration not listed);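 active = replicate mean above 50%; inconclusive = above 50% but judged a plate artefact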;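 note: 50 nL library stock added to about 25 µL; numbers are from one replicate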
ugtP null kill – growth inhibition of ugtP-null S. aureus, primary screen, RN4220 ugtP deletion, OD600; 16 h; some inactives read as strong as hits; growth inhibition, % (concentration not given with the values); 330,000 tested, 0.54% active; AID 1259309, 2017;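 active = z-score under -3 and OD600 up to 0.15 on both plates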;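 note: plate controls were untreated wells for no effect and antibiotic for full effect; wells of about 80 µL received 100 nL stock; the first replicate is given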
Mtb hypoxia inh – PubChem AID 1159583 | fluorescence inhibition, % (test concentration not listed) | 300,000 tested, 0.1% active | M. tuberculosis hypoxia-regulated fluorescent reporter, fluorescence;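 active = 35 to 45% if threefold the growth effect, above 45% if 1.5-fold the growth effect; inactive = the rest, general growth blockers included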;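 note: wells of about 50 µL received 100 nL stock; 0% = vehicle wells and 100% = reference inhibitor wells; whole bacteria with a GFP reporter of the hypoxia response; strong numbers were not always called active; many hits fall short of the cut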
Mtb hypoxia inh growth – further read-out of Mtb hypoxia inh, marked with its call; growth inhibition, %; measured here: M. tuberculosis growth (absorbance);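 0% = vehicle and 100% = reference antibiotic; read after six days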
* marks the source's active call; other numbers are inactive results; ? = inconclusive; . = no result given; & = joins results of further samples.

Sample of the layout:
SMILES	PrP UTR inh	RN4220 kill	Bead autofluor	BJeLR viability	ugtP null kill	Mtb hypoxia inh	Mtb hypoxia inh growth
CCOC(=O)C(/C=N/c1cc(C)nn1-c1ccccc1)=C(\C)O	-11.3	.	9739	-3.3	.	.	.
O=C(CCNC(=O)c1ccccc1Cl)Nc1ccncc1	-14.2	-1.0	4128	0.6	-0.4	6.1	-3.9
CC(C)c1nc2sc3c(SCC(=O)NCc4ccco4)ncnc3c2c2c1CCC2	2.2	1.0	3285	-0.4	35.7	.	.

Results, from the start:
SMILES	PrP UTR inh	RN4220 kill	Bead autofluor	BJeLR viability	ugtP null kill	Mtb hypoxia inh	Mtb hypoxia inh growth
CCOC(=O)C(/C=N/c1cc(C)nn1-c1ccccc1)=C(\C)O	-11.3	.	9739	-3.3	.	.	.
O=C(CCNC(=O)c1ccccc1Cl)Nc1ccncc1	-14.2	-1.0	4128	0.6	-0.4	6.1	-3.9
CC(C)c1nc2sc3c(SCC(=O)NCc4ccco4)ncnc3c2c2c1CCC2	2.2	1.0	3285	-0.4	35.7	.	.
Cc1ccc(Cc2c(C)c(C#N)c3[nH]c4ccccc4n3c2=O)cc1	-24.6	56.6	5125	13.8	53.9	.	.
O=C(O)c1c(Cl)nc2ccccn12	-29.6	3.1	4366	8.0	6.8	17.5	12.5
CCOC(=O)Cn1cc(C(=O)C2CC2)c2ccccc21	-5.0	6.4	4278	4.1	4.3	3.3	9.0
CSc1ccc(S(=O)(=O)N2CC(=O)Nc3ccccc32)cc1	-5.1	9.0	?	4.6	9.3	-6.1	0.0
CNc1nc2c(c(=O)[nH]c(=O)n2C)n1CCOC	.	1.4	.	-3.9	6.7	.	.
O=C(/C=C/c1ccccc1)Nc1nc(-c2ccncc2)cs1	-26.1	7.1	3360	0.8	-0.2	11.2	8.1
CCOC(=O)CC1C(=O)NCCN1C(=O)c1ccc(C)cc1 (stereo not given)	-13.3	3.3	3679	5.3	-1.3	8.6	-5.3
N#Cc1ccc(C(=O)Nc2cc(C3CC3)nn2-c2ccccc2)cc1	-0.6	4.9	3554	-1.9	4.1	4.9	6.8
Nc1c(C(=O)NCc2cccnc2)sc(=S)n1-c1ccccc1	-0.3	0.2	?	5.9	0.5	-10.2	5.9
NC(=O)C1CCN(c2ccc3c(c2)S(=O)(=O)c2ccccc2C3=O)CC1	-9.8	8.5	3486	-2.7	-0.7	15.7	5.4
CCCOC(=O)c1ccc(NC(=O)c2ccc(Br)o2)cc1	-60.8	2.8	1960	-6.8	-0.2	4.7	12.2
O=C(NCc1ccc(F)cc1)c1cc(C(=O)C2CC2)c[nH]1	-22.3	1.1	5307	11.6	-2.6	5.6	-1.5
O=c1[nH]cnc2c1ncn2C1OC(CO)C(O)C1O (stereo not given)	-13.5	3.3	5864	.	-2.3	5.0	5.4
CC(C)[C@H](NC(=O)c1ccc(Cl)c([N+](=O)[O-])c1)C(=O)NCc1ccc(F)cc1	-23.2	-1.8	7013	-7.5	-8.0	2.1	7.0
O=C(CSc1ccc(Br)cc1)NCC(c1ccco1)N1CCCCC1 (stereo not given)	-16.6	6.6	4739	-2.3	16.6	1.6	-1.5
O=C(COc1nc2ccccc2nc1N1CCOCC1)NC1CCCCC1	-4.6	1.6	2476	-4.9	0.4	-1.4	7.8
C/C(=N/NC(=O)CNC(=O)c1cccnc1)c1ccc(Cl)cc1	-9.7	.	3924	7.0	.	.	.
COC(=O)Nc1ccc(S(=O)(=O)Nc2cc(OC)nc(OC)n2)cc1	-20.7	3.2	5389	1.2	2.2	7.6	5.9
CC(C1CC2CCC1C2)n1c(-c2ccco2)n[nH]c1=S (stereo not given)	-19.1	9.9	1949	-1.1	-2.2	8.4	7.0
COc1cc(CCC(=O)OCC(=O)c2ccc[nH]2)cc(OC)c1OC	1.6	0.7	5527	.	-5.2	1.5	0.6
Cc1ccc2nsnc2c1NC(=S)NC(=O)c1ccco1	-15.4	-5.5	6904	-0.7	-9.9	1.9	13.4
COC(=O)C(Cc1ccccc1)P(=O)(c1ccccc1)c1ccccc1 (stereo not given)	-12.6	6.5	2592	-16.7	8.1	2.9	0.9
CC(=O)Nc1ccc(S(=O)(=O)N(c2cccnc2)S(=O)(=O)c2ccc(NC(C)=O)cc2)cc1	6.7	-2.1	23675*	5.6	-15.3	-19.2	13.4
CCN1C(=O)c2cccc3c(S(=O)(=O)NCc4ccccn4)ccc1c23	-1.9	2.4	2601	1.0	-4.6	.	.
COc1ccccc1C(=O)Nc1ccc(S(=O)(=O)N(C)c2ccccc2)cc1	-15.0	9.2	4440	-7.7	1.1	-6.7	-1.7
CC(C)C(=O)N1CCN(CCN=CC2=C(O)CC(c3ccco3)CC2=O)CC1 (stereo not given)	4.5&-13.1	4.3&2.3	4028&16088	-0.2	2.5&9.9	1.9&-0.1	7.5&-6.9
CN(Cc1nc(-c2cnccn2)no1)Cc1cccc2ccccc12	-8.0	4.9	4812	-0.5	4.0	18.5	6.9

Sorted by SMILES length (high to low): part of the list above
SMILES	PrP UTR inh	RN4220 kill	Bead autofluor	BJeLR viability	ugtP null kill	Mtb hypoxia inh	Mtb hypoxia inh growth
CCOC(=O)Cn1cc(C(=O)C2CC2)c2ccccc21	-5.0	6.4	4278	4.1	4.3	3.3	9.0
O=C(CCNC(=O)c1ccccc1Cl)Nc1ccncc1	-14.2	-1.0	4128	0.6	-0.4	6.1	-3.9
O=C(O)c1c(Cl)nc2ccccn12	-29.6	3.1	4366	8.0	6.8	17.5	12.5

(further entries)
SMILES	PrP UTR inh	RN4220 kill	Bead autofluor	BJeLR viability	ugtP null kill	Mtb hypoxia inh	Mtb hypoxia inh growth
Cc1ccc(NC(=O)COC(=O)c2csc3c2CCC(C)C3)cc1S(=O)(=O)N1CCCCC1 (stereo not given)	11.0	5.6	?	-1.9	7.3	3.5	4.9
C=CCn1c(SCC(=O)Nc2nnc(C)s2)nnc1C1CC1	6.9	6.6	4340	11.1	15.2	5.5	-4.4
CCc1ccc(C(=O)CN2C(=O)NC3(CCc4ccccc43)C2=O)cc1 (stereo not given)	-1.1	3.2	6187	.	0.9	0.8	8.1
Cc1cc(=O)[nH]c(SCC(=O)Nc2ccc(S(=O)(=O)N3CCOCC3)cc2)n1	-9.8	0.8	4245	3.7	-7.3	4.0	4.8
O=C(O)c1cccc(N2CCCC2=O)c1	-18.8	0.2	10480	-1.9	4.6	2.8	-5.1
COc1cc(S(=O)(=O)NCc2ccncc2)c(OC)cc1C	-12.0	2.9	3818	1.6	-2.5	13.2	-1.8
CN(C)NC1=CC(=[N+]2CCCC2)CC(C)(C)C1	-20.1	7.3	4430	1.7	2.3	17.0	12.2
COc1ccc(-c2nnn(CC(=O)NCCc3ccc(OC)c(OC)c3)n2)cc1	-11.3	-3.8	4303	6.5	-16.7	-7.5	12.0
CC1CN(C(=O)CN2C(=O)c3ccccc3C2=O)CC(C)O1 (stereo not given)	-16.3	3.1	2093	1.2	-0.9	.	.
COc1cc2c(cc1OC)/C(=C/C(=O)c1ccccc1)NCC2	3.2	2.5	3221	7.1	0.2	4.5	-5.8
COC(=O)c1cc(NS(=O)(=O)c2ccc(N3CCOCC3)c(NC(C)=O)c2)cc(C(=O)OC)c1	-24.5	-0.5	2491	-2.0	6.4	5.9	-1.2
Cc1c2n(c3ccccc13)CCC2=NO	.	1.8	.	.	7.0	16.4	3.5
CCN(CC)C(=O)CN1C(=O)/C(=C/c2ccccc2)SC1=S	-19.6	1.6	4288	14.5	12.9	19.2	15.4
COc1ccc(N2C(=O)CC(Sc3nccc(C)n3)C2=O)cc1 (stereo not given)	-20.0	5.0	4934	3.5	10.6	6.2	6.3
Cn1cc([C@@H]2C[C@H]3CN(Cc4cccc(Cl)c4)C(=O)[C@]34CCCN24)c(-c2ccccc2)n1	-16.1	5.5	10670	-12.0	0.2	1.9	4.1
CC(=NNC(=O)c1ccncc1)c1ccc(O)cc1O	-14.0	1.3	4610	.	-0.2	11.3	14.4
O=C(N/C(=C/c1cccc([N+](=O)[O-])c1)C(=O)N1CCOCC1)c1ccc(Br)cc1	1.9	0.1	4535	3.6	-4.1	-1.4	2.9
COc1ccc2c(c1)c(=O)c(C(=O)c1ccccc1)cn2Cc1ccccc1	-7.4	-3.6	5683	1.5	6.7	.	.
C=CCNC(=S)NNc1nc(Nc2ccccc2)nc(N2CCCCC2)n1	-31.8	0.2	4031	1.5	-8.8	-6.8	3.0
CC(C)CNC(=O)[C@H]1N2C(=O)c3ccccc3C2SC1(C)C (stereo not given in full)	3.5	1.5	3443	-3.5	2.6	5.4	-4.9
Nc1c(S(=O)(=O)c2ccccc2)c2nc3ccccc3nc2n1/N=C/c1ccco1	-42.7	.	19798*	-10.0	.	.	.
COc1cccc(CNc2nc3nc(C)c(Cl)c(C)n3n2)c1	-32.5	2.2	9275	5.7	-1.9	2.5	10.7
Cc1ccc(NS(=O)(=O)c2ccccc2)c([N+](=O)[O-])c1	-22.9	8.9	3852	.	-6.9	16.4	6.6
Cc1ccc(/C=C(\C#N)C(=O)NCc2ccco2)o1	-26.8	1.1	4722	10.2	3.8	15.5	8.5
Cc1ccc(-n2c(=O)c(C#N)cc3c(=O)n4ccccc4nc32)cc1	-8.5	6.3	2155	6.4	5.8	4.9	7.4
Oc1ccc(-c2onc(C(F)(F)F)c2-c2cscn2)c(O)c1	-3.8	-19.7	2935	1.6	-2.7	-0.8	1.9
O=C(CC(c1ccccc1)c1ccccc1)NCC(O)c1ccc([N+](=O)[O-])cc1 (stereo not given)	9.7	-8.7	3192	3.4	-2.1	-5.1	-3.3
CC(=O)N[C@H](Cc1c[nH]c2ccccc12)C(=O)O	-22.7	.	5531	-26.1	.	.	.
COc1ccccc1NC(=O)Cn1c(CCC(=O)O)ccc1-c1ccc(C)cc1	-36.0	16.3	4158	8.3	1.7	-3.5	2.2
Cc1cc(C)c(C)c(S(=O)(=O)N2CCC(C(=O)N(C)Cc3nc4ccccc4c(=O)[nH]3)CC2)c1C	11.1	-1.5	?	.	-3.1	4.8	4.4
COc1cc(C=NO)ccc1OCc1ccc(C(=O)O)cc1	.	-2.0	.	.	-5.4	7.1	11.8
O=C1c2ccccc2C(=O)N1c1ncccn1	2.7	2.0	3299	-3.4	5.5	0.1	4.0
CCc1ccc(NS(=O)(=O)c2cccs2)cc1	-11.7	9.4	9330	-3.1	11.8	4.0	-6.2
COc1ccc(-c2cc(C(F)F)n3ncc(C(=O)N4CCCc5ccccc54)c3n2)cc1	-22.6	2.2	2145	-6.3	5.3	-12.0	2.7
COc1ccc(C=NNc2cc(=O)n(C)c(=O)n2C)cc1OC	.	-0.7	.	.	0.4	2.8	11.5
O=C(COc1ccc(C=NNC(=O)C(=O)N2CCCCCC2)cc1)Nc1ccccc1Cl	.	5.2	.	.	11.2	10.2	4.7
Cc1cc(SC2CCOC2=O)nc2ccccc12 (stereo not given)	-24.2	5.6	4375	2.8	-7.0	1.3	3.3
CCNC(=S)N1CCC(c2nc3cc(C)c(C)cc3[nH]2)CC1	-2.1	0.1	2344	-4.8	0.1	6.6	4.1
Cc1cc(=O)[nH]c(SCC(=O)C23CC4CC(CC(C4)C2)C3)c1C#N	-25.4	18.3	5308	-3.8	42.2	-7.4	-2.9
O=C(NCc1cccnc1)c1cnc2n(c1=O)CCS2	-13.8	5.0	7873	-3.6	3.2	5.3	5.3
CCCN=C(Nc1ccc(Cl)cc1)c1cccnc1	-47.4	2.5	9858	2.8	-6.2	2.2	4.8
Cc1ccc(-n2c(C)c(C)c3c(NCCO)ncnc32)cc1	-21.0	-5.3	2943	-0.9	-6.0	-6.5	-9.2
CCn1c(SCC(=O)NN=Cc2ccc(OC)c(OC)c2)nc2ccccc21	.	0.3	.	.	-3.1	7.1	11.1
CCOC(=O)c1c(C)[nH]c(C(=O)CSc2ccccc2)c1C	-69.6	-6.6	2976	7.1	-12.4	1.9	8.9
CCOc1ccc(NC(=O)c2cccc(OC(=S)N3CCC(C)CC3)c2)cc1	-20.5	2.6	3218	-1.1	26.0	8.2	3.6
CCN(CC)c1ccc(C=NNc2nc3ccccc3[nH]2)c(O)c1	.	32.8	.	.	27.1	3.1	3.1
Cn1cnnc1SCC(=O)Nc1sc2c(c1C#N)CCCCC2	-32.8	-0.1	10761	-15.1	-1.7	8.7	12.2
Cc1nc(C)c(N)c(=O)[nH]1	-33.7	-0.5	5291	-6.6	1.8	-4.2	2.0

Bioassay records: PubChem BioAssay, several laboratories

Outcome played no part in choosing rows; 4.1% or so of the library scored in one or more.
